Beta cell apopt: blocks beta cell apoptosis | AID 435005 | INS-1E cytokine-induced death, ATP luminescence, 48 h; percent of positive-control rescue, neutral wells zero | protection from apoptosis, % (concentration not given with the values) | hit rate 0.8% among 300,000;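 active means all replicates at 75% or more, or half of them and the mean; inconclusive means half reach 75% but not the mean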;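 further: 0% = cytokine-treated negative control wells and 100% = positive control rescue; higher means more ATP so stronger rescue from cytokine killing; wells of about 40 µL received 100 nL stock; the first replicate is given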
ALR inh: human ALR oxidase inhibition via reduced H2O2; P55789; purified ALR, DTT oxidation, H2O2 HRP-luminol luminescence; inhibition, % (concentration not given with the values); hit rate 3.8% among 290,000;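 active means mean and each replicate at 75% or more; inconclusive means only one of the two met; inactive means neither met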;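 further: stock transfer was 7.5 nL into about 7.5 µL; 0% = neutral wells and 100% = wells with inactivated enzyme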
Target sequence (P55789 whole entry, looked up): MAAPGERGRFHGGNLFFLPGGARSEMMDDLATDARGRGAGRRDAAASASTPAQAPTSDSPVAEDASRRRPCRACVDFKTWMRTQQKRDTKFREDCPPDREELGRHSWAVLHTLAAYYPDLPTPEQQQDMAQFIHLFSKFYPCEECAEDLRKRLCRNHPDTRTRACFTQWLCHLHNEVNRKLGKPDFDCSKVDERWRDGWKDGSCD
A1 inh: inhibitors of the anti-apoptotic protein A1, read as caspase activation. MEF A1-2A-BIM cells, Caspase-Glo 3/7 luminescence, 3 h; percent of clofoctol response, vehicle zero. caspase activation, % (concentration not given with the values). hit rate 0.066% among 330,000;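 active means over half of replicate activation scores above 10%, or exactly half above 10 with the replicate mean above 10; inconclusive means replicate mean below 10 yet half the replicates above 10; inactive means over half of replicates below 10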;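 further: wells of about 30 µL received 50 nL stock; many hits fall short of the cut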
B2AR ag: human beta-2 adrenergic receptor agonism by FAP; P07550; Am2.2-beta2AR cells, FAP receptor internalization, flow cytometry; reference of the scale not given here; response, % (no concentration beside the values); hit rate 0.43% among 340,000; AID 504454;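 active means response above a set limit, near 3 SD of response in nonfluorescent compounds, cut at about 42% in these data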;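 further: stock transfer was 100 nL into about 11 µL; a reference agonist was the positive control; negative values mostly stem from fluorescent compounds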
Target sequence (P07550 whole entry, looked up): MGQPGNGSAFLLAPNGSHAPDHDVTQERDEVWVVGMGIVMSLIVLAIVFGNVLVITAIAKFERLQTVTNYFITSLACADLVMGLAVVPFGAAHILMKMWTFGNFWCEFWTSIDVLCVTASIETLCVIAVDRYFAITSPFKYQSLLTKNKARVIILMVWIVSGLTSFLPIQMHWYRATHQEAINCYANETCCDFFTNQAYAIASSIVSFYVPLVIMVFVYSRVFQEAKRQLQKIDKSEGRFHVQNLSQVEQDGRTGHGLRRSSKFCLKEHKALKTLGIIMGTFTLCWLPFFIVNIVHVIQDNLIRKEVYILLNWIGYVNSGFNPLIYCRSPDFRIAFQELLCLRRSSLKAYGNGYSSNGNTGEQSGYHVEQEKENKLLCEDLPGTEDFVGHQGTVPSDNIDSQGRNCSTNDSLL
T cruzi repl: blocks replication of Trypanosoma cruzi | inhibition, % (no concentration beside the values) | hit rate 1.4% among 300,000 | T. cruzi beta-gal in NIH3T3, luminescence, 90 h;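 active means mean inhibition across valid replicates above about 55%, limit read from the data; inconclusive means mean below that limit but half or more replicates reach it; inactive means mean below it, under half of replicates reach it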;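 further: signal also drops with host cell toxicity which is not excluded here; 0% = plate median of DMSO wells and 100% = zero luminescence signal; higher percent means less beta-gal luminescence so fewer parasites; stock transfer was 50 nL into about 50 µL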
rRNA inh HTS: inhibitors of bacterial rRNA selective over humanized ribosomes | E. coli WT GFP vs humanized-ribosome RFP mutants, fluorescence, 24 h; hits give low values; DMSO median 0, no signal -100 | GFP signal change (wild-type ribosome), % (no concentration beside the values) | hit rate 1.6% among 350,000 | AID 720706;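 active means significant combined selectivity score with lowered wild-type GFP, culture density cut under 30%, mutant RFP and density less affected; inactive means any of these conditions unmet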; further: one replicate is shown; some compounds called inactive have numbers as strong as hits
Calb FLC: affects C. albicans growth with fluconazole | hit rate 0.57% among 300,000 | AID 1979 | C. albicans CaCi-2 (fluconazole-resistant clinical isolate) + fluconazole, Alamar Blue growth, 48 h | growth inhibition, % (no concentration beside the values);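 active means most replicates above 75%; inconclusive means exactly half above 75%; inactive means most below 75%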;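 further: all wells also contain fluconazole at 8 µg/ml as a sub-toxic cotreatment; 0% = median of DMSO wells and 100% = median of geldanamycin control wells; wells of about 8 µL received 7.5 nL stock; the first replicate is given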
LANA-H2B inh: blocks KSHV LANA binding to histone H2A/H2B. cell-free LANA-H2A/H2B peptide, fluorescence polarization. inhibition, % (concentration not given with the values). hit rate 0.6% among 320,000; in the data active means inhibition mostly above about 10%, no sharp cut-off; inactive means mostly below about 6.7%;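 further: stock transfer was 7.5 nL into about 10 µL; 0% = median of vehicle wells and 100% = median of positive control wells; one replicate is shown; the record names a cut of 25% in any replicate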
rRNA inh HTS OD600: also measured in rRNA inh HTS; calls as there; OD600 change, %; measured here: OD600 growth;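 optical density of the mix in the first replicate; 0 = DMSO median and -100 = no signal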
rRNA inh HTS RFP: recorded beside rRNA inh HTS, whose call it bears; RFP signal change, %; measured here: RFP humanized mutant strains;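 first replicate; 0 = DMSO median and -100 = no signal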
An asterisk follows results filed as active; ? = inconclusive; nt = no result given. Some of the compounds tested (hit frequency here may not be typical).

SMILES	Beta cell apopt	ALR inh	A1 inh	B2AR ag	T cruzi repl	rRNA inh HTS	rRNA inh HTS OD600	rRNA inh HTS RFP	Calb FLC	LANA-H2B inh
O=S(=O)(Nc1ccc(Br)cc1)N1CCOCC1	-4	20	0.5	5	-10	8	11	2.3	-7	0.5
O=C(CN(Cc1ccco1)C(=O)CNS(=O)(=O)c1ccc(F)cc1)NCc1ccccc1	1	3	-0.1	5	9	-2	5	-2.5	-14	1.1
CCN(CC)c1ccc(NC(=O)CN2CCN(c3nc(C)cc(C)n3)CC2)cc1	2	98*	-0.3	-5	nt	nt	nt	nt	nt	3.1
Fc1ccc(/C=N/Nc2nnnn2-c2ccccc2)cc1	nt	24	0.8	2	-22	-39	-32	-4.0	5	2.0
O=C(c1cccc(C(F)(F)F)c1)C1CCCN(C(=O)CN2CCOC2=O)C1 (centres undefined)	-5	-3	0.3	-1	-7	16	12	-1.1	-7	2.8
COc1ccc(/C=N/OCC(=O)NC(c2ccccc2)c2ccccc2)cc1OC	32	nt	0.5	-1	57*	8	5	-1.1	-6	1.7
O=C1CS/C(=N\c2ccccn2)N1C1CCCCC1	-3	-9	0.4	-1	nt	nt	nt	nt	-1	-2.2
O=C1CN(C(=O)COc2ccccc2Cl)c2ccccc2N1	4	-3	0.1	5	nt	-1	1	-2.3	nt	-0.1
O=C(c1ccc2c(=O)n(Cc3ccc(Cl)cc3)c(=S)[nH]c2c1)N1CCCC1	0	-1	-0.1	7	-12	13	6	-0.4	1	-0.2
NCc1cccc(CNc2ccc([N+](=O)[O-])cc2C(N)=O)c1	-8	-15	0.9	10	nt	6	10	10	nt	1.0
CCOC(=O)C1CCN(C2CCN(C(=O)c3oc4c(C)c(C)ccc4c3C)CC2)CC1	-4	1	0.7	-3	28	-2	-8	40	2	0.3
C/C(=C\c1ccccc1)C(=O)Nc1nc2ccc([N+](=O)[O-])cc2s1	14	0	-3.1	-1	-12	5	1	-0.2	-2	4.0
O=C(C[C@H]1C/C=C\C[C@@H](Cc2ccc(F)cc2)C(=O)O[C@H](c2ccccc2)CNC1=O)N[C@@H](CO)Cc1ccccc1	2	2	-0.6	2	nt	nt	nt	nt	nt	-0.3
NCCNC(=O)Cc1cccc(NC(=O)Cc2ccc(Nc3ncnc4c3ncn4[C@@H]3O[C@H](CO)[C@@H](O)[C@H]3O)cc2)c1	-2	nt	-0.2	-2	-17	2	7	-2.5	nt	-2.8
Cc1ccccc1NC(=O)CSCCO	-5	-3	nt	-6	-11	nt	nt	nt	-8	5.3
O=C(Nc1nc(-c2ccc(F)c(F)c2)cs1)c1cc([N+](=O)[O-])ccc1N1CCOCC1	0	0	-0.7	-4	26	nt	nt	nt	2	0.1
COC(=O)c1c(N)nc(C)n1-c1ccc(OC)cc1	-4	2	2.3	2	-13	nt	nt	nt	nt	-1.3
CCOc1ccc(NC(=O)CN(C)C(=O)CC2CCCCC2)cc1OCC	-5	-4	0.4	8	nt	-7	-18	-0.4	nt	-2.9
COCCOC(=O)c1[nH]c2c(c1C)C(=O)CC(c1ccco1)C2 (centres undefined)	18	nt	1.1	25	-39	2	4	6.8	4	2.0
Cc1ccc(NC2CCCN(C(=O)CCc3scnc3C)C2)cc1C (centres undefined)	2	99*	0.6	-2	6	10	1	3.1	21	0.4
Cc1oc(-c2cccc(Cl)c2)nc1CN1CCCC(C(=O)NCCCN2CCOCC2)C1 (centres undefined)	1	2	0.0	-3	63*	nt	nt	nt	-4	3.6
Cc1ccccc1CS(=O)(=O)c1cnc2ccccc2n1	-14	-1	-0.2	-3	-12	nt	nt	nt	-2	-2.8
CCN(Cc1nc2cc(OC)c(OC)cc2c(=O)[nH]1)C(=O)c1ccc(S(=O)(=O)N(C)C)cc1	1	-5	-0.9	-5	4	nt	nt	nt	8	-3.8
NC(=O)c1ccsc1NC(=O)c1ccc(N2CCCC2=O)cc1	9	2	-17	7	nt	0	4	19	-4	3.4
CCCCC(=O)Nc1ccc(NC(=O)CCCC)nc1	3	-20	0.2	-4	-16	nt	nt	nt	-8	-0.1
O=C1CSC(=S)N1c1cccnc1	-10	11	-0.2	-7	-1	9	15	16	-4	-2.4
CCc1ccc(Oc2nnnn2-c2ccc(C(N)=O)cc2)cc1	-5	-3	0.7	0	-2	9	-2	-7.6	-1	8.6
O=C(CCNC(=O)c1ccc([N+](=O)[O-])cc1)Nc1ccc(F)c(F)c1F	-2	-4	0.5	-8	8	5	14	16	4	1.0
C/C(CC(=O)Nc1ccc(Cl)c(Cl)c1)=N\NC(N)=S	5	20	-0.1	-4	1	nt	nt	nt	-21	1.4
COc1ccc(OC)c(C(=O)NC(CC(N)=O)c2ccc(NCCN3CCOCC3)c([N+](=O)[O-])c2)c1 (centres undefined)	-4	nt	-0.7	-3	2	1	-6	-6.2	3	0.0
COc1ccccc1-c1n[nH]c(=S)n1N	-2	-3	0.1	5	-2	17	7	1.0	-4	-4.0
Cc1nc2cc(NC(=O)NCCC3=CCCCC3)ccc2o1	-3	-7	0.6	2	10	7	6	-1.7	-24	2.9
CCc1ccc(/C(C)=N/NC(=O)c2c[nH]c3ccccc23)s1	7	0	0.3	-1	22	-30	-24	-3.2	2	-0.2
O=C(OCc1cc(=O)n2cc(Br)ccc2n1)C1COc2ccccc2O1 (centres undefined)	nt	-3	0.2	-4	-12	nt	nt	nt	-2	-1.3
CC(C)Sc1nc2sccc2c(=O)n1-c1ccccc1	-6	0	0.7	2	24	-7	-8	2.2	2	5.3
O=C(O)/C=C/C(=O)N1Cc2cc3ccccc3nc2C1	-5	8	0.9	-6	-1	-5	6	-1.9	8	-5.0
CC(=O)c1ccc(NC(=O)CCn2c(=S)oc3ccccc32)cc1	nt	nt	-0.4	6	-11	10	16	-0.3	6	-1.2
Nc1nc(CSc2ccc(Cl)cc2)nc(N2CCCCC2)n1	-5	-63	0.2	-6	nt	-49	-72	-11	-6	1.8
Cc1ccc(NC(=O)c2ccccc2OCC(=O)c2ccc(F)cc2)cc1	-1	7	-0.5	-6	2	nt	nt	nt	-6	-6.5
CCOC(=O)N1CCC(=NNC(=O)c2ccccc2F)CC1	2	0	0.0	5	nt	nt	nt	nt	nt	-3.5
CCOc1cc(S(=O)(=O)N(CC)CC)ccc1Br	-3	-5	-0.6	5	5	nt	nt	nt	5	-1.9
Cc1onc(-c2ccccc2)c1C(=O)Nc1ccc(S(=O)(=O)N2CCCC2)cc1	0	-17	0.4	15	5	-18	-9	-0.3	3	0.7
CCCOc1ccc(N2C(=O)CC(N(Cc3ccc(S(N)(=O)=O)cc3)C(=O)CC)C2=O)cc1 (centres undefined)	-8	-9	-0.1	19	6	nt	nt	nt	6	-1.2
CCN(C(=O)CN1C(=O)NC2(CCc3ccccc32)C1=O)C1CCCCC1 (centres undefined)	-6	nt	1.0	-10	8	5	-3	1.1	4	-2.3
O=C(N/N=C(\CC(=O)c1cccs1)C(F)(F)F)c1cccnc1	4	60	0.5	2	0	-13	-15	1.8	-3	8.9
CNC(=O)c1ccccc1S(=O)c1ccccc1C#N (centres undefined)	-1	6	0.3	1	-5	nt	nt	nt	-6	-0.8
COc1ccc(C(=O)NCc2ccc(-c3nc4ccccc4s3)cc2)cc1	nt	-3	-0.8	-3	-3	nt	nt	nt	3	0.6
CN1/C(=C\C(=O)c2ccco2)C(C)(C)c2ccccc21	99*	29	-1.6	-68	31	-38	-36	55	0	-21
CCOCCSc1nc2c(c(=O)[nH]c(=O)n2C)n1CCCc1ccccc1	4	3	0.3	-3	2	nt	nt	nt	?	1.1
CCC(C)c1ccc(NC(=O)C2CCN(c3ncccn3)CC2)cc1 (centres undefined)	3	-15	0.2	-2	25	nt	nt	nt	16	2.0
CCC(CC)NC(=O)CON=C1c2ccccc2-c2ccccc21	-10	nt	-0.6	-1	11	nt	nt	nt	5	nt
Cn1c(=O)c2c(nc(NN=C3CCCCC3)n2C)n(C)c1=O	11	-1	0.2	1	-14	23	19	1.5	-3	-0.3
Cc1ccc(C2(C(F)(F)F)N=C3Sc4cc(C)cc(C)c4N3C(=O)N2)cc1 (centres undefined)	-1	nt	-0.1	1	-26	nt	nt	nt	?	-3.9
C/C(=N\NC(=O)c1cc2ccccc2cc1O)c1ccc(C)o1	6	5	0.2	4	-8	7	-2	1.8	36	-2.5
CCCN(CCC)CCNC(=O)CN1C(=O)COc2ccc(S(=O)(=O)N3CCOCC3)cc21	nt	0	nt	1	-3	21	23	1.7	10	nt
CCCOc1ccc(C2/C(=C(/O)c3ccc(F)cc3)C(=O)C(=O)N2CCCN(C)C)cc1 (centres undefined)	-10	nt	2.3	1	-5	nt	nt	nt	11	7.9
CC(=O)N1c2ccc(S(=O)(=O)NCCC(=O)NCc3ccc(F)cc3)cc2CC1C (centres undefined)	nt	-4	-0.9	10	-11	7	-1	-1.0	-2	7.0
Cc1onc(-c2ccccc2Cl)c1C(=O)NNC(=O)c1cccc(F)c1	1	4	0.3	-4	-8	-7	3	-4.8	1	0.1
CC(=O)Nc1ccc(NC(=O)CSc2nccn2Cc2ccc(Cl)cc2)cc1	2	-15	-0.2	-13	13	-13	-8	-0.6	-5	-18
Cc1ccc(-c2nc(C3CCCN(S(=O)(=O)c4ccc(C(F)(F)F)cc4)C3)no2)cc1 (centres undefined)	5	-8	0.8	0	8	nt	nt	nt	12	2.9
New compounds follow:
SMILES	Beta cell apopt	ALR inh	A1 inh	B2AR ag	T cruzi repl	rRNA inh HTS	rRNA inh HTS OD600	rRNA inh HTS RFP	Calb FLC	LANA-H2B inh
CCN1CCN(CCn2c(=S)[nH]c3cc4c(cc3c2=O)OCO4)CC1	0	92*	0.4	-5	-5	nt	nt	nt	-2	3.9
CCOC(=O)c1sc(=NC(=O)c2ccc(C)c(C)c2)n(C)c1C	-2	-8	-0.7	-1	10	16	15	-1.8	-5	-2.6
CCOc1ccc(CN2C(=O)c3ccccc3C2C(=O)NC(C)CC)cc1OC (centres undefined)	-7	-2	2.7	-8	-4	-1	11	-0.9	-5	9.3
Cc1ccc(N/C=C/C(=O)c2cccs2)cc1C	-11	17	-0.7	6	-7	-20*	-11*	3.5*	1	-15
CCOC(=O)CN1C(=O)S/C(=C/c2cccc([N+](=O)[O-])c2O)C1=O	7	-1	-3.2	5	3	-9	-7	-0.7	-2	-4.7
O=C1CN(C(=O)c2ccc(Cl)c(S(=O)(=O)N3CCc4ccccc43)c2)c2ccccc2N1	11	-7	0.0	-15	3	-35*	-11*	2.0*	-2	6.1
O=C(c1ccccc1)N1CCN(Cc2cccc(Oc3ccccc3)c2)CC1	0	-8	0.5	-6	14	-32	-42	-2.0	4	9.6
O=C(CCC1CCCC1)N1CCN(C(=O)C2CC2)CC1	3	-10	0.7	-3	-3	nt	nt	nt	6	4.5
CC(C)(C)NC(=S)Nc1ccc(Br)cc1	-2	3	0.4	-2	-18	nt	nt	nt	-5	-4.4
CCOc1ccc(-c2c(C(=O)N/N=C/c3ccncc3)nnn2-c2nonc2N)cc1	-1	-4	0.3	0	-12	11	10	-3.3	6	-1.3
CN(C)C(=O)c1ccc(NC(=O)COC(=O)c2cc3c(s2)CCCCC3)cc1	1	-2	0.1	0	nt	-2	1	4.6	nt	-2.0
